Screens: PubChem, National Center for Advancing Translational Sciences (NCATS)
TRPV1 potentiator = enhances activation of the human vanilloid receptor TRPV1. 0.02% of 320,000 active. AID 540277. TRPV1-expressing cells, Fluo-8 calcium influx, capsaicin EC20 potentiation; host cell line not named in the record; control for the full effect not named in the record. potentiation, % at 8.33 µM. Q8NER1; active means potentiation above 80%; inconclusive means 30% to 80%; inactive means below 30%; note: 0% is about no effect
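Fluo-8 calcium influx in TRPV1-expressing cells, kinetic read (ex 480/em 520 nm). Compound added and read 3 min for agonist activity, followed by capsaicin at EC20 final and 2 min further read for enhancement.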
Menin MLL FP FL = inhibitors of human menin-MLL interaction, wild-type MLL peptide; FP activity change, % at 61.4 µM; Fluorescence polarization, fluorescein-MLL peptide displacement from menin; 290,000 tested, under 10 active; AID 1766; inconclusive = falling polarisation curve, or a change in total fluorescence; inactive = total fluorescence flat and polarisation flat or rising; no compound was filed as active; the % refers to the polarisation; negative = inhibition;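 note: % of control where 0% means no effect; inhibitors lower the polarisation; unlabelled MLL peptide was the positive control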
Sfp PPTase inh = blocks B. subtilis Sfp PPTase activity | Q9F4F7 | Biochemical Sfp PPTase activity, qHTS | Potency, µM, without a hit: max response, negative = inhibition, most hits filed as inhibitors | 3.5% of 310,000 active; active = well fitted inhibition curve with a large enough effect; inconclusive = small, poorly fitted or top-dose-only effect, or another doubt; inactive = no such curve, though single readings can be large or run the other way;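 note: the enzyme is Sfp with the accession as filed and its product quenches rhodamine fluorescence; potency is the fitted concentration of half-maximal effect; 0% = enzyme reaction without inhibitor and -100% = no enzyme wells; top concentration of the series not given in the record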
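Reaction rates are the 30-min fluorescence difference (ex 525, em 598 nm) in wells containing 15 nM Sfp, 5 uM rhodamine-CoA and 12.5 uM BHQ-2-YbbR at pH 7.6 with 10 mM MgCl2.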
ClpP mod = qHTS Assay for Activators of ClpP | ATP-dependent Clp protease proteolytic subunit (Bacillus subtilis (strain 168)), P80244 | purified B. subtilis ClpP, FRET peptide cleavage, 20 min | Potency, µM (highest dose often 57.5 µM), for inactives: at the top dose activity change, negative = active | 1.9% of 340,000 active; active = well fitted falling curve with a large enough effect; inconclusive = small, poorly fitted or top-dose-only effect; inactive = no such curve, though single readings can be large or run the other way; note: potency is the fitted concentration of half-maximal effect; the source files actives as falling curves though it sought activators and does not explain the sign; nearly all actives have a fitted effect of over 65% in size; many hits overshoot -100%
Target sequence (P80244 whole entry, looked up): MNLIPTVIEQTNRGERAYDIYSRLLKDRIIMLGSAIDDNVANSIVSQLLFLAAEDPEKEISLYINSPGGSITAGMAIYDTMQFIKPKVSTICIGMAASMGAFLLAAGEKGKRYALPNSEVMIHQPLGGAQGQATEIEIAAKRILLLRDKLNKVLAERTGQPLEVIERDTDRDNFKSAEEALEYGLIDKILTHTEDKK
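Buffer: 100 mM Tris/HCl pH8, 100 mM KCl, 0.05% low protease BSA, 2.5% glycerol, 0.01% Tween-20. ClpP 10 microg/mL final; 20 min RT; delta FRET normalized to ADEP and DMSO controls.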
gsp antagonist = antagonists of gsp mutant (McCune-Albright syndrome). gsp-mutant cells, cAMP HTRF, 30 min; control for the full effect not named in the record. Potency, µM (titrated, usually from 76.9 µM), for the others: top-dose activity change, negative = inhibition, hits mostly inhibitors. 0.4% of 340,000 active. AID 624288; active = falling curve of any shape with a large fitted effect; inconclusive = falling curve, mostly with a smaller effect; inactive = flat or rising curve; cell line not stated here;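 note: intracellular cAMP measured with PDE inhibitor Ro 20-1724 present during compound exposure; potency is the fitted concentration of half-maximal effect; % is set by controls: 0 for no effect and ±100 for the full control effect; nearly all actives have a fitted effect of over 65% in size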
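HTRF cAMP read-out (cAMP-d2 plus anti-cAMP antibody-K in lysis buffer, 30 min RT). Before lysis, cells are exposed to compounds with […] for 30 min at 37C in DPBS containing Ca/Mg, BSA and Tween 20.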
D2 potentiator = positive allosteric modulators of human D2 dopamine receptor | potentiation, % (no concentration beside the values) | P14416 | 0.23% of 360,000 active | DiscoveRx D2 beta-arrestin cells, luminescence, 90 min; 100% = 57 uM dopamine signal; active = potentiation of 50% or more; inconclusive = 30% to 50%; inactive = 30% or less;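 note: compound concentration not given in the record; tested on top of an EC20 dose of dopamine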
Target sequence (P14416 whole entry, looked up): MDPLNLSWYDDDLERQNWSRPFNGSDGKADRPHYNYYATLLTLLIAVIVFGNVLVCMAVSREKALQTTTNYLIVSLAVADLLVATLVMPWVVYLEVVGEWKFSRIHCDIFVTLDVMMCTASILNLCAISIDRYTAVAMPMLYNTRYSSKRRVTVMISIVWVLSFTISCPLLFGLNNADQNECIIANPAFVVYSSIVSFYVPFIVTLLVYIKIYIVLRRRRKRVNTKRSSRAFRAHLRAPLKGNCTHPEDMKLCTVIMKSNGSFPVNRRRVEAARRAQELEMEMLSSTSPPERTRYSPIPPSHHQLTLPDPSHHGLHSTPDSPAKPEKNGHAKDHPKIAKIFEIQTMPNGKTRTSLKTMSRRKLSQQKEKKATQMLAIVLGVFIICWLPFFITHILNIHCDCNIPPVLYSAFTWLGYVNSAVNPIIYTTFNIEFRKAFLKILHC
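D2 cells co-treated with compound plus 50 nM dopamine (EC20) for 90 min at 37 deg C to detect potentiation. Beta-arrestin recruitment was read as enzyme-fragment luminescence after 1 h at ambient temperature. Full response was set by 57 uM dopamine.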
gsp agonist = activates gsp, the McCune-Albright syndrome mutation; Potency, µM (doses to about 76.9 µM), without a hit: at the highest dose activation (cAMP increase), usual class: activators; 0.13% of 340,000 active; gsp mutant cells, cAMP HTRF, 30 min; control for the full effect not named in the record; active = well fitted activation curve with a large enough effect; inconclusive = small, poorly fitted or top-dose-only effect, or another doubt; inactive = no such curve, though single readings can be large or run the other way; cell line not stated here;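 note: phosphodiesterase inhibitor Ro 20-1724 added with compounds to block cAMP breakdown; potency is the fitted concentration of half-maximal effect; nearly all actives have a fitted effect of over 60% in size; about a fifth of the inactives were tested at one dose only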
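Cells in DMEM/10% FBS with G418 were pretreated with compounds in DMSO plus […] (300 uM stock) for 30 min at 37C. cAMP was measured by HTRF (cAMP-d2 plus anti-cAMP antibody-K) after 30 min at room temperature.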
Numbers without * were called inactive; ? = inconclusive; / = not tested or not shown; & = joins results of further samples; [ ] = remark or other dose.

Results follow in this order: TRPV1 potentiator	Menin MLL FP FL	Sfp PPTase inh	ClpP mod	gsp antagonist	D2 potentiator	gsp agonist
1: CCOC(=O)CCC(=O)N1CCOCCOCCN(C(=O)CCC(=O)OCC)CCOCCOCC1
    4.6	-0.9	16.4%	-0.5%	6.7%	-13.3	-20.4%
2: O=c1c(Br)c(NCc2ccccc2)cnn1-c1ccc(F)cc1
    -12.0	-5.7	7.4%	-1.2%	-13.7%	-4.8	-4.3%
3: CC1CCCCN1S(=O)(=O)c1cnc(Cl)c(Br)c1 (stereo not given)
    -7.1	-0.6	8.1%	-0.9%	-23.6%	-14.4	-5.8%
4: CCOC(=O)/C=C1\CN(CCC(C)C)S(=O)(=O)c2ccccc21
    ?	0.1	-0.4%	0.6%	-4.4%	-15.5	/
5: CC(NC(=O)c1ccc([N+](=O)[O-])o1)C1CC2CCC1C2 (stereo not given)
    /	/	/	/	2.3%	2.5	15.5%
6: C=CCn1cnc2c(nnn2-c2ccc(C)c(C)c2)c1=O
    5.4	5.0	10.0%	/	-2.8%	1.8	7.8%[15.4 µM]
7: Cc1ccc(SCCNC(=O)c2ccccc2C)cc1
    -24.2	1.6	19.7%	-6.4%	-1.7%	-6.1	-20.8%
8: O=C(O)c1cc(N2CCCC2)ccn1
    /	/	/	?	8.7%	-10.3	-3.0%
9: O=C(O)c1cc(-c2ccc(N3CCOCC3)cc2)nn1-c1ccccc1Cl
    -3.7	0.2	?	/	-2.0%	-8.6	5.1%
10: CCOc1ccc(CN(C)CC(=O)Nc2cccc3ccccc23)cc1OC
    -11.9	-4.7	?	-0.4%	-0.7%	-3.5	-4.0%[15.4 µM]
11: COc1cc(CC(=O)Nc2ccc(Cl)c(C(F)(F)F)c2)cc(OC)c1OC
    -16.4	4.0	1.0%	-1.3%	-15.8%	-5.8	-53.8%[inhibitor]
12: CCNC(=O)CSc1nnc(-c2cccs2)o1
    4.1	1.5	8.1%	/	5.3%	6.7	1.3%
13: COC(=O)c1c(NC(=O)C2CC2)sc2c1CCN(C(C)=O)C2
    15.2	-0.1	14.1µM*	?	-6.3%	-7.4	-1.4%
14: O=Cc1ccccc1Oc1ccccc1
    ?	1.1	15.3%	1.3%	3.4%	6.1	-6.5%
15: CC(Cn1cncn1)C(=O)N1CCN(S(=O)(=O)c2ccc(Cl)cc2)CC1 (stereo not given)
    -2.9	-1.7	14.2%	/	10.8%	-3.5	-16.2%
16: O=C(NCc1ccncc1)c1ccc(Cl)c(S(=O)(=O)N2CCCCC2)c1
    -13.4	-1.9	20.5%	/	2.9%	-2.6	-8.7%[15.4 µM]
17: O=C(N(c1ccccn1)c1ccccn1)C12CC3CC(CC(C3)C1)C2
    3.8	0.8	7.8%	-0.3%	-2.5%	-6.3	30.6%[15.4 µM]
18: COc1ccc(CCNC(=O)CCNS(=O)(=O)c2cccc3nonc23)cc1OC
    -6.2	6.0	20.5%	2.2%	-0.9%	13.2	-15.8%
19: O=C(CN1C(=O)CSc2ncccc21)Nc1ccccc1F
    -1.2	0.2	23.1%	-3.0%	6.3%	-10.8	-21.8%
20: O=C1C[C@@H](c2ccccc2)Oc2cc(O)cc(O)c21
    /	/	/	0.4%	2.7%	-10.2	39.3%
21: S=C(NCc1ccccc1)NC1CCCCC1
    -7.5	0.5	1.1%	-0.6%	7.4%	-6.6	-1.7%
22: O=C(CSc1nc2ccccc2s1)Nc1cc(S(=O)(=O)N2CCOCC2)ccc1O
    3.8	0.1	-15.6%	0.9%	-8.7%	24.0	22.2%
23: COc1ccc(-c2nc(NC(C)=O)sc2-c2ccccc2)cc1
    -6.4	-1.0	-2.5%	/	-26.0%	-5.6	10.9%[15.4 µM]
24: Cn1c(Cl)c(/C=N/OC(=O)c2cccc(Cl)c2)c2ccccc21
    -4.1	-2.1	18.4%	-4.7%	0.6%	-1.8	15.2%
25: COCc1cc(/C=N\NC(=O)COc2ccc(Cl)cc2)ccc1OC
    -5.3	4.8	-1.0%	-2.7%	-0.6%	-5.3	11.4%[15.4 µM]
26: CCC(=O)N1CCc2cc(OC)c(OC)cc2C1COc1ccc(OC)cc1 (stereo not given)
    2.6	-0.1	11.8%	-0.3%	15.7%	-8.1	17.2%[15.4 µM]
27: [N-]=[N+]=NC1C[C@H](n2ccc(=O)[nH]c2=O)O[C@@H]1CO (stereo not given in full)
    16.1	0.0	15.3%	0.8%	-5.5%	6.2	/
28: CCN(CC)CCCN1C(=O)c2oc3ccccc3c(=O)c2C1c1cccnc1 (stereo not given)
    1.5	3.8	13.1%	-23.6%	3.1%	-18.8	20.8%
29: CC1CCN(C(=O)c2ccc(CSc3ccc(Cl)cc3)cc2)CC1
    -6.8	-4.5	-7.9%	1.0%	-25.6%	-4.1	24.9%
30: COc1ccc(NC(=O)c2cc3c(CO)cnc(C)c3oc2=Nc2cccc(C)c2)c(OC)c1
    25.5	0.9	8.7%	/	5.7%	2.2	0.4%
31: CCOc1ccc(NC(=S)N(CCN2CCOCC2)Cc2cc3cc4c(cc3[nH]c2=O)OCO4)cc1
    9.7	7.1	-19.5%	3.5%	-0.2%	-7.7	5.4%
32: O=C(c1cc(-c2ccc(Cl)cc2)on1)N1CCN(c2ccccc2)CC1
    4.6	-0.7	17.9%	/	5.6%	-3.7	6.9%
33: N=C1SCC(=O)N1c1ncc(Cc2ccc(F)cc2)s1
    2.0	-0.4	-22.3%	/	-0.4%	-5.1	8.4%[15.4 µM]
34: COc1ccc(C=CC(=O)c2ccc3cc(OC)c(OC)cc3c2)cc1OC
    /	/	/	-12.6%	/	-0.3	?
35: CCCCN(C(=O)c1c(C)noc1C)c1c(N)n(CCCC)c(=O)[nH]c1=O
    4.4	/	/	-1.0%	-11.7%	-6.5	3.0%[15.4 µM]
36: COC(=O)COc1ccc(S(=O)(=O)Nc2ccc3c(c2)OCO3)cc1
    -10.6	-0.7	12.1%	-2.6%	-17.0%	4.5	-38.8%[inhibitor]
37: CSCC(C)N1CCC(N2CCC(C(=O)NCc3ccccn3)CC2)CC1 (stereo not given)
    -19.6	/	0.4%	-2.0%	1.4%	0.5	?
38: Cc1ccc(COn2nnc3ccc(S(=O)(=O)N4CCOCC4)cc32)cc1
    -18.9	/	/	0.3%	5.7%	1.3	-1.0%
39: N#Cc1cnn(-c2ncnc3sc(-c4ccccc4)cc23)c1N
    11.9	-1.1	-23.7%	-4.7%	12.3%	2.5	12.0%
40: NC(=O)C1CCCc2c1n(Cc1ccccc1)c1ccccc21 (stereo not given)
    6.2	4.1	8.1%	/	-4.5%	4.9	7.2%
41: COc1ccc2c(c1)c(C(=O)N1CCN(C)CC1)c(C)n2-c1ccccc1
    -5.5	6.3	-4.9%	-1.0%	23.0%	-30.8	5.8%
42: CC1(C)[N+]([O-])=C2C(=[N+]([O-])C1(C)C)c1ccccc1/C2=N\O
    -5.2	1.9	-23.0%	-1.0%	3.2%	3.7	-27.3%
43: CCCCc1c(O)c2ccccc2n(CCCC)c1=O
    -19.0	1.7	1.0%	0.3%	11.2%	-1.9	2.1%[15.4 µM]
44: O=C(Nc1c(F)cccc1F)c1ccc2c(c1)CCN2S(=O)(=O)c1ccccc1
    -10.6	3.9	-3.4%	-0.8%	-14.9%	-6.7	0.0%
45: Cc1cc2ncc(-c3ccc(Cl)cc3)cn2n1
    -13.0	6.2	18.3%	-0.6%	-4.6%	-14.6	6.5%[15.4 µM]
46: NC1=NC[C@@H](Cc2ccc(O)cc2)N1CCc1cc(C(F)(F)F)cc(C(F)(F)F)c1
    -14.6	-0.2	0.4%	-2.2%	8.5%	-20.0	/
47: COc1ccccc1CNC(=O)c1ccc(CNc2c(N3CCCC3)c(=O)c2=O)cc1
    -4.9	2.1	-20.7%	-3.6%	6.0%	-8.9	?
48: Cc1ccc(CNC(=O)C(NS(=O)(=O)c2cccs2)C(C)C)cc1 (stereo not given)
    3.5	1.5	7.2%	-0.3%&-0.6%	-5.0%	-0.6	5.5%
49: CC(=O)C1=C(O)C=C(c2ccco2)CC1c1ccco1 (stereo not given)
    4.9	15.8	5.7%	-0.8%	-7.1%	-2.9	-5.9%
50: CC(=O)NCCC(=O)Nc1nc2c(ccc3ccccc32)s1
    -10.9	-0.3	-9.2%	/	-3.9%	-4.8	15.9%

The results go on:
Results follow in this order: TRPV1 potentiator	Menin MLL FP FL	Sfp PPTase inh	ClpP mod	gsp antagonist	D2 potentiator	gsp agonist
51: Cc1ncccc1C(=O)N1CCCC(CNC(=O)c2ccc(-c3ccccc3)cc2)C1 (stereo not given)
    -9.9	7.0	-1.4%	-0.9%	1.4%	-10.5	14.6%
52: CN(CC(=O)Nc1ccccc1Br)C(=O)CCc1nc2ccccc2c(=O)[nH]1
    -0.3	/	/	0.2%	-16.4%	-19.9	-2.4%[15.4 µM]
53: O=C(CCC1CCCCC1)NC1=NCCS1
    -9.9	4.6	5.3%	?	13.5%	11.3	26.6%
54: COc1ccc(OC)c(NC(=O)CCNS(=O)(=O)c2cccc3nsnc23)c1
    0.9	0.0	18.5%	1.0%	11.1%	2.9	16.8%
55: COc1ccc(/C(N)=N/O)cc1O
    -4.1	-0.8	14.6%	-1.6%	7.3%	-15.4	-24.6%
56: CC(=O)Nc1ccc(CN2CCC(CO)(CCOc3ccccc3)CC2)cc1
    1.9	0.2	18.2%	/	8.9%	1.6	1.1%
57: COc1ccc(-c2cc(C(F)F)n3ncc(C(=O)N4CCSCC4)c3n2)cc1
    -11.1	10.8	13.9%	-27.0%	-9.8%	-1.9	4.4%
58: O=C(O)CC1(CC(=O)Nc2nccs2)CCCCC1
    /	/	/	-1.5%	-1.0%	9.6	-0.1%
